Assay outcomes from PubChem BioAssay.
GIV-Gai inh – blocks GIV peptide binding to rat Galpha-i3. P08753. Galpha-i3/FITC-GIV peptide fluorescence polarization, 90 min; active compounds read low; scaled: aluminum fluoride 0%, vehicle 100%. percent of control (FP), % (concentration not given with the values). actives 0.42% (n = 210,000);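 active = replicate mean at 85% of control or lower, very high polarization wells dropped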;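 note: wells of about 15 µL received 100 nL stock; the first replicate is given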
Target sequence (P08753 whole entry, looked up): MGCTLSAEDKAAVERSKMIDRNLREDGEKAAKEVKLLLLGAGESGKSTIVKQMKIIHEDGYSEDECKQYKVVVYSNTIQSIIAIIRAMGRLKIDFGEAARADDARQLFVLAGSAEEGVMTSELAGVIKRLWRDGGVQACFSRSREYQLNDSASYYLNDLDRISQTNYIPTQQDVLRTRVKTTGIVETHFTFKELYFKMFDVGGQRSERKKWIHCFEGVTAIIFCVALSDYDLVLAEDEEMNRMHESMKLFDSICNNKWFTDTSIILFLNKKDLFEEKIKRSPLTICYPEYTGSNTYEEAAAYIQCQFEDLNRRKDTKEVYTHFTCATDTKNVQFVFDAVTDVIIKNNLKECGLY
Sa growth 42C – inhibitors of Staphylococcus aureus growth at 42 °C | actives 0.53% (n = 170,000) | S. aureus RN4220 growth, OD600, 20 h; active compounds read low | relative growth, % (test concentration not listed) | AID 720641;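 active = growth at 42 °C up to 50% and 20 or more points under that at 30 °C, or under 10% at both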;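 note: 300 nL library stock went into each well; scaled to the means of positive and negative controls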
HCMV NEC inh – disrupts HCMV UL50-UL53 complex binding; HTRF UL50-UL53 interaction, normalized percent inhibition; inhibition, % (test concentration not listed); actives 0.15% (n = 190,000); AID 1918969;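 active = both replicates at 50% or more, plus weaker picks with an unusually low signal ratio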;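 note: stock transfer was 100 nL into about 20 µL; 0% = negative control wells and 100% = wells with untagged competitor protein; inactives centre near -12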
Sa growth 42C second temp – recorded beside Sa growth 42C, whose call it bears; relative growth, %; measured here: growth at 30 °C;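 optical density after 20 h as mean of two plates; 100% = untreated growth and lower means inhibition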
Numbers without * were called inactive; . = not tested or not shown.

Structure	GIV-Gai inh	Sa growth 42C	Sa growth 42C second temp	HCMV NEC inh
CC(Oc1cccc(Cl)c1)C(=O)NCc1ccc2c(c1)OCO2 (stereo not drawn)	99	103	82	-23
Cc1ccc(C)n1CCN1CCNCC1	.	103	93	-18
CC(OC(=O)c1ccccn1)C(=O)N1CCc2ccccc21 (stereo not drawn)	.	104	94	-14
Cc1nccc(-c2cccc(NC(=O)Nc3ccccc3)c2)n1	100	80	73	-42
Cc1nn(Cc2ccccc2)c(C)c1NC(=O)c1noc2c1CCc1ccccc1-2	102	129	81	.
CN(C)c1nc(-c2ccccc2)[n+](C)s1	94	91	84	-1
CCC(=O)N1c2ccc(S(=O)(=O)N3CCN(c4ccccc4)CC3)cc2CC1C (stereo not drawn)	108	106	91	-21
O=C(CSc1nc2c(c(=O)n1Cc1ccco1)C1(CCCC1)Cc1ccccc1-2)c1cccs1	108	132	82	0
CCN(C(=O)Nc1cccc(C)c1C)c1nc(-c2ccc(Br)cc2)cs1	102	.	.	-23
COC(=O)c1ccc(NCN2C(=O)S/C(=C/c3ccc(SC)cc3)C2=O)cc1	97	.	.	-21
COc1ccc2cc(CCNC(=O)COc3ccc4ccccc4c3)c(=O)[nH]c2c1	97	103	87	.
CCOc1ccc2nc(SCC(=O)Nc3ccccc3C(N)=O)sc2c1	100	.	.	-5
CC1SC2(CCCCC2)NC1=O (stereo not drawn)	100	112	113	-5
Cc1ccccc1CC(=O)N1CCC(c2nnc(-c3ccc(S(=O)(=O)N4CCCC4)cc3)o2)CC1	101	.	.	-15
CCOc1ccc(CCNC(=O)c2ccc(CS(=O)Cc3cccc(Cl)c3)o2)cc1 (stereo not drawn)	108	24*	49*	.
Cc1ccc(S(=O)(=O)N2C(=O)/C(=C3\SC(=S)N(Cc4ccco4)C3=O)c3ccccc32)cc1	108	.	.	-19
Cc1ccc(-n2c3c(cc(C(=O)NC4CCSC4=O)c2=O)C(=O)CCC3)cc1 (stereo not drawn)	106	124	90	.
COc1cccc(C(=O)N(Cc2nc3nc(C)cc(C)n3n2)c2ccc(C)cc2)c1	98	.	.	-28
CN(Cc1ccccc1)C(=O)CN1C(=O)CCn2nc(-c3cccc(Cl)c3)cc21	109	.	.	-15
Cc1onc(-c2ccccc2)c1CNC(=O)C1CCCCC1	100	106	94	-4
Cc1nc(CC(=O)N/N=C/c2ccc(OCC(=O)O)cc2)cs1	.	85	89	-33
CN(C)CCN1C(=O)C(O)=C(C(=O)c2ccco2)C1c1ccco1 (stereo not drawn)	104	106	88	-15
CCOC(=O)c1cccc(NC(=O)c2cc(-c3ccncc3)n(-c3ccccc3)n2)c1	103	.	.	-13
COc1ccccc1OCCCn1cc(/C=C2/C(=N)N3C=CSC3=NC2=O)c2ccccc21	103	95	88	-17
Cc1ccccc1-c1noc(-c2nnn(-c3ccccc3Br)c2C)n1	106	.	.	-28
COc1ccc(Nc2c(C(=O)N3CCOCC3)cnc3ccccc23)cc1Cl	101	.	.	-19
CCCCC1CCC(C(=O)Nc2noc3ccccc23)CC1 (stereo not drawn)	99	72	82	.
O=c1c2oc3ccccc3c2n(Cc2cccc(F)c2)c(=O)n1Cc1ccco1	98	104	88	.
COc1ccc(NC(=O)c2sc3nc4c(cc3c2N)CCCCCC4)cc1OC	80*	94	82	-47
CCc1cc(=O)[nH]c(SCc2nc(-c3ccc(C)cc3)oc2C)n1	106	.	.	-15
COc1ccccc1N1CCN(c2cc(C)nc3nncn23)CC1	100	99	86	-2
Cc1ccc(C(=O)Nc2ccc3oc(-c4ccc(C(C)(C)C)cc4)nc3c2)cc1	110	103	85	-54
O=C(Nc1ccc(F)cc1F)N1CCN(c2ccc(Cl)c(Cl)c2)CC1	109	99	89	2
CC1CN(Cc2ccc(C#N)cc2Cl)CC(C)O1 (stereo not drawn)	.	82	87	-14
O=c1/c(=C/c2cccnc2)sc2n1CN(c1ccccc1)CN=2	118	101	89	-30
COc1cc(=O)n(-c2ccc(F)cc2)nc1C(=O)Nc1cccc(Br)c1	102	.	.	-26
CSc1ncc(C(=O)N2CCN(Cc3ccccc3)CC2)c(-c2ccccc2)n1	110	97	102	9
CCOc1ccccc1CNC(=O)c1cnc2c(-c3ccc(OCC)c(OCC)c3)c(C)nn2c1C	105	99	91	.
CCCCN(C)C(=O)C1CCC(CNS(=O)(=O)c2ccc3c(c2)CC(C)N3C(C)=O)CC1 (stereo not drawn)	100	106	80	.
NC(=O)c1c(NC(=O)CCN2C(=O)S/C(=C\c3cccs3)C2=O)sc2c1CCC2	.	98	95	-33
COc1ccc(-c2noc(N(C)CC(=O)Nc3cccc(OC)c3)n2)cc1	104	110	92	.
O=C(NC(CO)CCO)c1ccccc1 (stereo not drawn)	98	83	79	-21
CCc1nn2c(=O)cc(COC(=O)C3CCCCC3)nc2s1	105	88	92	.
O=C(CCCC(=O)c1ccccc1)Nc1ccc(Cl)cn1	105	92	95	.
N#CC(C#N)=Cc1ccc(OCC(O)Cn2c3ccccc3c3ccccc32)cc1 (stereo not drawn)	94	125	74	-7

Three compounds out of the list, arranged by length of the SMILES, low to high:
Structure	GIV-Gai inh	Sa growth 42C	Sa growth 42C second temp	HCMV NEC inh
O=C(CCCC(=O)c1ccccc1)Nc1ccc(Cl)cn1	105	92	95	.
Cc1ccc(C(=O)Nc2ccc3oc(-c4ccc(C(C)(C)C)cc4)nc3c2)cc1	110	103	85	-54
CCCCN(C)C(=O)C1CCC(CNS(=O)(=O)c2ccc3c(c2)CC(C)N3C(C)=O)CC1 (stereo not drawn)	100	106	80	.

(next part)
Structure	GIV-Gai inh	Sa growth 42C	Sa growth 42C second temp	HCMV NEC inh
COC(=O)COc1ccc2oc(=O)cc(-c3cc4ccccc4o3)c2c1	103	112	84	-33
CCOC(=O)c1cccc(NC(=O)CSc2ncc3c(n2)-c2ccc(Cl)cc2N(Cc2ccccc2)S3(=O)=O)c1	107	81	86	.
Cc1ccc(OCCCC(=O)N2CCOCC2)cc1	98	98	86	-16
CN=C(c1ccccc1)N1CCN(c2ccc(OC)cc2)CC1	.	83	85	-25
O=C(NCC(c1cccnc1)N1CCc2ccccc21)c1cccc(F)c1 (stereo not drawn)	106	97	93	-1
Cc1ccc2[nH]cc(CCNC(=O)c3ccc(Cn4c(=O)c(C)nc5cc(C)c(C)cc54)cc3)c2c1	113	.	.	-4
CCOc1cc(-c2noc(CCCC(=O)Nc3cccnc3)n2)cc(Br)c1OC	104	.	.	0
Cc1ccc(CC(=O)OCC(=O)Nc2c(C#N)c(C)c(C)n2Cc2ccco2)cc1C	.	107	94	-12
CCc1ccccc1-n1c(SCc2cc(=O)n3ccccc3n2)nc2[nH]ncc2c1=O	96	115	79	.
CCCCCOc1ccc(NC(=O)Cn2c(-c3cncs3)nc3ccccc32)cc1	110	108	92	-15
c1cncc(-c2nc3ccc4ccccc4c3c3c2CCCC3)c1	98	111	84	.
CCC(C(=O)Nc1cccc(Cl)c1C)n1nc(C)c2sc3ccccc3c2c1=O (stereo not drawn)	102	87	94	-19
COc1ccc(CNC(=O)c2cc3c(=O)n(Cc4ccco4)ccc3nc2C)c(OC)c1	97	73	85	.
COc1ccc(N2CCC(CNS(=O)(=O)c3cccc(C(F)(F)F)c3)C2)cc1 (stereo not drawn)	101	96	79	.
Cc1ccc(C(=O)Nc2sc3c(c2C(=O)NCc2ccco2)CCC(C(C)(C)C)C3)cc1 (stereo not drawn)	107	106	96	-5
CC1CCCCN1CCCNC(=O)Cn1cccc1C(=O)c1ccccc1 (stereo not drawn)	102	110	90	.
O=C(Nc1ccc(Cl)cc1)c1csc(COc2ccc3nonc3c2)n1	104	98	77	-32
Cc1cccc(-c2nc3ccccc3c(=O)n2OC(=O)c2c(F)cccc2F)c1	100	.	.	-14
Nc1nc(-c2ccccc2)nc2sc3c(c12)CCCC3	.	96	76	-4
Cc1ccc2c(c1)-c1c(cnn1CC(=O)N1CCCC1)CO2	95	.	.	1
COc1cccc(-c2noc(COc3cccc(C)c3C)n2)c1	108	103	84	-17
O=C(c1cccc(F)c1)N1CCN(Cc2c[nH]c3ccccc23)CC1	101	99	92	13
CC(c1ccccc1)n1cnc2c(cnn2-c2ccccc2)c1=O (stereo not drawn)	105	109	87	1
CCC(=O)N1c2ccccc2CC1C(=O)NCc1ccc(N(C)C)cc1 (stereo not drawn)	101	90	98	.
CSc1sc(NC(=O)N2CCOCC2)c(-c2ccc(Cl)cc2)c1C#N	103	74	57	-19
CC(C)(C)NC(=O)c1nc(-c2ccccc2)n(-c2ccccc2)n1	.	99	89	4
CC(C)CCNC(=O)C1(C)CCc2ccccc2C(=O)N1Cc1ccccc1 (stereo not drawn)	101	.	.	-21
N#Cc1ccc(NC(=O)C2CCC2)cc1	103	88	83	-18
CCOC(=O)c1ccc(NC(=O)CC(c2ccc(OC)cc2)N2Cc3ccccc3C2=O)cc1 (stereo not drawn)	99	.	.	0
CCOCCCNC(=O)C(c1ccc(Cl)cc1)N(Cc1ccc2c(c1)OCO2)C(=O)c1ccccc1O (stereo not drawn)	102	97	82	2

More records follow.
Each structure is followed by: GIV-Gai inh | Sa growth 42C | Sa growth 42C second temp | HCMV NEC inh
O=C(O)CCN=C1CCCc2ccccc2N1
  102 | 104 | 81 | .
CC(C)Cn1cnc2c1c(=O)n(Cc1coc(-c3ccccc3)n1)c(=O)n2Cc1ccccc1
  . | 91 | 92 | 7
CCOC(=O)COc1ccc(Br)cc1C=C1C(=O)NC(=O)NC1=O
  97 | . | . | 57*
COc1ccc(CCNC(=O)C2CCCN2C(=O)NC2CCCCC2)cc1OC (stereo not drawn)
  101 | 104 | 89 | -14
O=C(CSc1nncc(=O)[nH]1)Nc1cccc(Cl)c1
  102 | 68 | 69 | -16
CCn1cc(Cc2cn(CC)nc2C)c(C)n1
  108 | 94 | 95 | 7
CCNC(=O)CN1C(=O)C2CCCCN2c2ccc(S(=O)(=O)N(C)C)cc21 (stereo not drawn)
  100 | . | . | -2
Cc1ccccc1NC(=O)Cc1nnc(SC(C)c2nc3ccccc3c(=O)[nH]2)n1C (stereo not drawn)
  106 | 92 | 78 | -10
COc1cccc(CNC(=O)c2cc3c(s2)-c2ccccc2OC3)c1
  105 | 63 | 18 | -16
c1ccc(N=C2OCC(COc3ccccc3)S2)cc1 (stereo not drawn)
  . | 105 | 86 | -10
CC(C)Cc1nnc2sc(-c3c[nH]c4ccccc34)nn12
  101 | . | . | -10
CCN(Cc1ccccc1)C(=O)Cc1ccccc1
  96 | 103 | 106 | -8
CCOc1ccc(NC(=O)Cn2nc(Cc3cccnc3)c3ccccc3c2=O)cc1
  105 | 110 | 86 | -16
C=CCSc1nc2sc3c(c2c(=O)n1-c1ccc(C)cc1)CCC3
  . | 118 | 89 | -7
Cc1cccc2cc3c(nc12)N(S(=O)(=O)c1ccc(F)cc1)CC3
  95 | . | . | -20
CCOC(=O)c1nnn(-c2nonc2N)c1CSc1nc2ccccc2s1
  110 | . | . | 13
O=C(CSC1=NC2(CCCC2)Nc2ccccc21)Nc1ccc2c(c1)OCCO2
  104 | 86 | 78 | -19
CCc1ccc(N2C(=O)N(Cc3ccc(Cl)cc3)C3CS(=O)(=O)CC32)cc1 (stereo not drawn)
  100 | . | . | -15
COC(=O)c1cn(-c2cccc(C)n2)cn1
  102 | . | . | 14
Cc1cc(C(=O)N2N=C(C3CC3)CC2(O)C(F)(F)F)c2ccccc2n1 (stereo not drawn)
  102 | 97 | 85 | .
Cc1c(Br)c([N+](=O)[O-])nn1CC(=O)Nc1cc(C(F)(F)F)ccc1Cl
  99 | . | . | -10
CCCCN(Cc1nc2nc(C)cc(C)n2n1)S(=O)(=O)c1ccc(Cl)cc1
  104 | . | . | -37
CCOC(=O)NN1C(=O)c2ccccc2NC1C (stereo not drawn)
  104 | 95 | 94 | -2
Cc1nn(C)c2c1S(=O)(=O)N=C(N1CCOCC1)S2
  105 | 84 | 95 | 7
CCOC(=O)c1ccccc1NC(=O)C(=O)Nc1ccc2nc3n(c(=O)c2c1)CCCCC3
  108 | 96 | 92 | 4
CC1=C(C(=O)Nc2ccc(C)cc2)C(c2ccc(N(C)C)cc2)n2ncnc2N1 (stereo not drawn)
  105 | . | . | -3
Cc1ccc(/C=C/C(=O)O)o1
  . | 102 | 96 | -26
Cc1nc2ccccc2nc1CSc1nnc(-c2cccc(S(=O)(=O)N3CCOCC3)c2)o1
  . | 93 | 93 | -11
CCOc1ccc(-n2c(=O)c3c(C)c(C)sc3n(CC(=O)N3CC(C)CC(C)C3)c2=O)cc1 (stereo not drawn)
  102 | 94 | 87 | -4
O=C1c2ccccc2C(=O)N1CCN1CCN(Cc2ccccc2)CC1
  110 | 103 | 93 | -6
CCC1CCCCN1C(=O)CSc1ncnc2ccccc12 (stereo not drawn)
  . | 85 | 83 | -48

Single records, from the list above. Values in the order: GIV-Gai inh	Sa growth 42C	Sa growth 42C second temp	HCMV NEC inh
Listed for `CCc1ccc(N2C(=O)N(Cc3ccc(Cl)cc3)C3CS(=O)(=O)CC32)cc1` (stereo not drawn) : 100	.	.	-15
Listed for `CCCCN(Cc1nc2nc(C)cc(C)n2n1)S(=O)(=O)c1ccc(Cl)cc1` : 104	.	.	-37
